VDR inh: blocks the human vitamin D receptor; hit rate 0.93% among 400,000; VDR-SRC2-3 peptide fluorescence polarization, 2 h; AID 504847; Potency, µM, for the others: max response, negative = inhibition, usual class: inhibitors; active means well fitted inhibition curve with a large enough effect; inconclusive means small, poorly fitted or top-dose-only effect, or another doubt; inactive means no such curve, though single readings can be large or run the other way; further: series mostly up to about 120 µM
Target sequence (P11473 whole entry, looked up): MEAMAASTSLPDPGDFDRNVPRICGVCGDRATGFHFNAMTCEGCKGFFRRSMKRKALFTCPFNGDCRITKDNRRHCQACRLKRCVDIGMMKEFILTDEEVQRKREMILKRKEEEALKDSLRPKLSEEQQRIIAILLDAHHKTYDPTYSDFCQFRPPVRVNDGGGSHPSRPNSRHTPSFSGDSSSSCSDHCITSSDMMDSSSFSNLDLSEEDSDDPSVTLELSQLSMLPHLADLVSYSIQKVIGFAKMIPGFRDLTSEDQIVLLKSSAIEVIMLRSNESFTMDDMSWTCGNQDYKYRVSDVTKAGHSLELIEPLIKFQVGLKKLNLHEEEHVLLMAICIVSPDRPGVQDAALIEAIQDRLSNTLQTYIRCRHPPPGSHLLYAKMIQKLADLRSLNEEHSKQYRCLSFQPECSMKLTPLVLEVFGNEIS
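The screen uses fluorescence polarization to detect compounds that interfere with recruitment of the SRC2-3 coactivator peptide to VDR; plates are read after 2 h at room temperature.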
Active calls of the source: *; ? = inconclusive; & = joins results of further samples; [ ] = dose if it differs, or a comment. On the % scale 0 is the no-effect control and ±100 the full control effect; potency means the concentration at half of the fitted maximal effect. These rows are one share of the data, so the mix of outcomes need not match the whole.

Sample of the layout:
SMILES	VDR inh
Cc1ccc(S(=O)(=O)N2CCOCC2)cc1NC(=O)CN(C)C1CCS(=O)(=O)C1 (configuration not stated)	-5.7%
Nc1nc(CSC(=S)N2CCN(c3ccccc3)CC2)nc(Nc2ccccc2)n1	-12.4%
CC(NC(=O)COC(=O)CNS(=O)(=O)/C=C/c1ccccc1)c1ccccc1 (configuration not stated)	5.5%
CC(=O)Nc1cccc(S(N)(=O)=O)c1C	0.4%

This part in full, previewed entries included:
SMILES	VDR inh
Cc1ccc(S(=O)(=O)N2CCOCC2)cc1NC(=O)CN(C)C1CCS(=O)(=O)C1 (configuration not stated)	-5.7%
Nc1nc(CSC(=S)N2CCN(c3ccccc3)CC2)nc(Nc2ccccc2)n1	-12.4%
CC(NC(=O)COC(=O)CNS(=O)(=O)/C=C/c1ccccc1)c1ccccc1 (configuration not stated)	5.5%
CC(=O)Nc1cccc(S(N)(=O)=O)c1C	0.4%
CCn1c(COc2cccc3cccnc23)nnc1SCC(=O)O	-7.2%
CC1CCN(c2ccccc2NC(=S)NC(=O)c2ccc(-c3cccc([N+](=O)[O-])c3)o2)CC1	-18.7%
COc1cc(/C=C(\C#N)c2nc(-c3cc4ccccc4oc3=O)cs2)ccc1O	-19.1%
O=C1CSC2(CCCCC2)N1CCO	5.2%
COc1cccc(NC(=O)CSc2nnc(-c3ccoc3C)n2-c2ccccc2)c1	-8.9%
CCOP(=O)(OCC)C(NC(=O)Nc1cccc(Cl)c1)C(N)=O (configuration not stated)	-8.2%
Cc1ccc(C(=O)Nc2ccc3nc(SCC(=O)N4CCCc5ccccc54)sc3c2)cc1	19.9%
CCOC(=O)c1ccc2c(c1)N(C(CC)C(=O)Nc1ccccc1OC)C(=O)c1ccccc1S2 (configuration not stated)	-2.0%

Copied from the list:
VDR inh with `COc1cc(/C=C(\C#N)c2nc(-c3cc4ccccc4oc3=O)cs2)ccc1O` → -19.1%
VDR inh with `COc1cccc(NC(=O)CSc2nnc(-c3ccoc3C)n2-c2ccccc2)c1` → -8.9%

Going on with the list.
SMILES	VDR inh
COC(=O)c1ccc(NC2=CC(=O)CC(C)(C)C2)cc1	-22.1%
COc1ccc2nc(N3CCN(C(=O)C4COc5ccccc5O4)CC3)sc2c1 (configuration not stated)	-1.7%
C=C(C)COc1ccc2c(CC)cc(=O)oc2c1	?
COc1ccc(NC(=O)C(C)n2nc(C)c3c(C)n(-c4ccccc4)nc3c2=O)cc1Cl (configuration not stated)	10.9%
CCCCN(CC)CCNC(=O)c1cn(CCOC)c(=O)c2c1c1ccccc1n2C	-11.4%&10.9%
COc1ccccc1/C=C1/C(=O)N(c2ccccc2)N=C1C	?
Cc1cccc(OCCn2c(=S)[nH]c3ccccc32)c1	?
C[C@@H]1NC(=O)OC1c1ccco1 (some centres not stated)	-26.1%
COc1cc(C(=O)Nc2ccc(-n3c(C)nc4ccccc4c3=O)cc2)cc(OC)c1OC	-3.2%
CC(C)CCNC(=O)c1ccc2c(c1)ncn2C1CCCC1	-1.8%
COC(=O)c1cccc(Oc2nc3c(c(=O)n(C)c(=O)n3C)n2C(C)C)c1	-7.1%
O=C1CN(CC(=O)Nc2ccc(SC(F)F)cc2)CCN1	0.5%
Cc1cccc(OCC(=O)N/N=C/CC(C)c2ccccc2)c1C (configuration not stated)	-17.4%
CCOC(=O)CSc1nc2c(c(=O)[nH]1)C(C)(CC)Cc1ccccc1-2 (configuration not stated)	-25.7%
O=C(NCC1CCCO1)C1CCCN(S(=O)(=O)c2ccc(Cl)cc2)C1 (configuration not stated)	-10.6%
CN(CC(=O)N1CCCC1)S(=O)(=O)c1cccc(Cl)c1	7.9%
O=C(NC(=S)Nc1ccc(CN2CCOCC2)cc1)c1ccc2c(c1)OCCO2	4.5%
COc1ncc2nc(-c3ccc(Cl)cc3)c(=O)n(-c3ccccc3)c2n1	-13.9%
COCCNC(=O)C(c1ccc(C)o1)N(Cc1ccc(OC)cc1)C(=O)Cn1nnc2ccccc21 (configuration not stated)	15.7%
Cc1ccc(S(=O)(=O)N2CCC(C(=O)OCC(=O)NCc3ccco3)CC2)cc1C	6.0%
O=C1CN(C(=O)c2c(F)cccc2F)C(c2ccccc2)c2cc(Br)ccc2N1 (configuration not stated)	41.7%[activator]
CC(=O)NC1=NN(C(C)=O)C2(S1)C(=O)N(C(C)C)c1ccc(C)cc12 (configuration not stated)	-3.9%
COc1ccc(C(=O)Nc2ncc(C)s2)cc1S(=O)(=O)N1CCCC1	2.0%
O=C(c1cncc(Br)c1)N1CCN(S(=O)(=O)c2ccc(Cl)cc2)CC1	-0.3%
COc1ccc(CNC(=O)COCc2cc(-c3cccs3)on2)cc1OC	16.9%
Cc1ccc(C)c(Cn2c(CCCNC(=O)C3CCCCC3)nc3ccccc32)c1	9.8%
COc1ccc(NC(C)=O)cc1NC(=O)c1cccc(C(F)(F)F)c1	-1.6%
CN(C)S(=O)(=O)c1cccc(NC(=S)NC(=O)C2CCCCC2)c1	-12.2%
CC(C)C(=O)Nc1cc(S(=O)(=O)Nc2cccc(Cl)c2)ccc1Cl	-23.0%
COc1ccc(CC(=O)Nc2ccc(-c3noc(-c4cccc(OC)c4)n3)cc2)cc1	0.7%
COc1cc(OC)c(NS(=O)(=O)c2cc(Br)cnc2N)cc1Cl	9.8%
c1coc(-c2nn3c(Cn4nnc5ccccc54)nnc3s2)c1	?
CCC(C)C(=O)Nc1c2c(nc3c1CCC3)CCCC2 (configuration not stated)	-4.1%
Cc1ccc(C2N(C)c3ccccc3-c3nc4ccccc4n32)o1 (configuration not stated)	-20.6%
COC(=O)c1ccccc1NC(=S)NC(=O)c1cccc2ccccc12	?
Cn1c(-c2cccc(F)c2)nc2c1c(=O)[nH]c(=O)n2Cc1ccccc1	-15.5%
O=C(COC(=O)c1ccc[nH]c1=O)c1ccc(Cl)s1	-14.3%
CS(=O)(=O)N1CCN(c2ccccc2NC(=O)c2ccc(-c3ccc(Br)cc3)o2)CC1	-5.5%
COc1ccc2nc(SCc3nc(N)nc(Nc4ccccc4)n3)[nH]c2c1	17.5%
CCOC(=O)N1CCN(C(=O)Cc2ccc(-n3c(=O)[nH]c4ccccc4c3=O)cc2)CC1	-7.4%
C=CCSc1nnc(NC(=O)Cc2ccc(OC)c(OC)c2)s1	-0.1%
O=[N+]([O-])c1ccccc1S(=O)(=O)N1CCN(Cc2ccccc2)CC1	-19.6%
CC(=O)Oc1cc(OC(C)=O)c2c(C)cc(=O)oc2c1	-7.3%
CC(=O)c1ccc(N2CCN(S(=O)(=O)c3c(C)[nH]c(C)c3C(=O)N3CCCCC3)CC2)cc1	-11.8%
CCN(Cc1ccccc1)c1ccc(/C=N/NC(=S)NC(C)C)cc1	-19.7%
COc1ccc(NC(=O)Nc2ccc3c(c2)C(=O)N([C@H](C)CO)C[C@H](C)[C@@H](CN(C)S(=O)(=O)c2ccc(OC)cc2)O3)cc1	-19.9%
N=c1c2c(n(Cc3cccc(Cl)c3)c3c1CCC3)CCCC2	-11.7%
CCC1(c2ccc(F)cc2)NC(=O)N(CC(=O)N(C)C2CCS(=O)(=O)C2)C1=O (configuration not stated)	-1.4%
COc1cc(OC)cc(C(=O)N[C@H](C(=O)N2CCc3ccccc32)C(C)C)c1	-12.4%
COc1ccc(-n2c(SCC(=O)Nc3cc(C)on3)nc3c(c2=O)SCC3)cc1OC	-12.7%
CC(C)Oc1ccc(CSc2nnc3n(C)c(=O)c4c5c(sc4n23)CCCC5)cc1	24.4%
Nc1nn2c(-c3ccccc3)cc(=O)[nH]c2c1N=Nc1ccc(Br)cc1	-1.0%
COc1cc(F)c(C2=CC(=O)C[C@H](c3ccc(F)cc3)C2)cc1F	-16.4%
CCOC(=O)c1[nH]c(C)c(/C(O)=C2\C(=O)C(=O)N(CCCN(C)C)C2c2cccnc2)c1C (configuration not stated)	-9.2%
CCN(CC)C(=O)CC(c1ccc(OC)cc1)c1c(O)cc(OC)cc1OC (configuration not stated)	5.3%&1.6%
CCCc1cc(NCCCN2CCOCC2)n2c(nc3ccccc32)c1C#N	12.1%
Cc1ccccc1C(=O)NCCN=C1NS(=O)(=O)c2ccccc21	1.6%
COc1ccc(/C=C/C(=O)OCC(=O)NCCc2ccccc2)c(OC)c1	6.6%
COc1ccc(CN2CCN(Cc3ccco3)CC2)cc1	15.0%
CC(=O)c1cccc(NC(=O)COC(=O)c2ccc3c(c2)OCCO3)c1	2.4%

A draw from above in order of molar mass, low to high.
SMILES	VDR inh
COc1cc(F)c(C2=CC(=O)C[C@H](c3ccc(F)cc3)C2)cc1F	-16.4%
Cc1ccccc1C(=O)NCCN=C1NS(=O)(=O)c2ccccc21	1.6%
CC(=O)c1cccc(NC(=O)COC(=O)c2ccc3c(c2)OCCO3)c1	2.4%
COc1cc(OC)cc(C(=O)N[C@H](C(=O)N2CCc3ccccc32)C(C)C)c1	-12.4%

Following part.
SMILES	VDR inh
O=C(O)c1cc(-c2cccc([N+](=O)[O-])c2)nc2ccccc12	-3.5%
CCCN1CCN(C(=O)Cn2ncc3ccccc32)CC1	-9.2%
CC(C)NC(=O)COC(=O)c1cccc(NS(=O)(=O)/C=C/c2ccccc2)c1	6.0%
CCS(=O)(=O)c1ccc(-c2csc(-c3ccccc3Cl)n2)c(Cl)c1Cl	3.0%
CSc1ncccc1C(=O)OCC(=O)Nc1cccc(S(=O)(=O)N2CCOCC2)c1	-11.9%
COC(=O)c1ccc(NS(=O)(=O)c2cc3c4c(c2)C(C)C(=O)N4CCC3)cc1 (configuration not stated)	-1.2%
CSc1nc(Cl)c(C#N)c(-c2ccc(C)cc2)n1	5.5%
COc1cc2c(cc1OC)[C@@H](NC(=O)C(C)C)[C@H](O)C2	-7.7%
CCOCC(=O)Nc1ccc(S(=O)(=O)Nc2nccs2)cc1	4.4%
Cn1cccc1/C=N/NC(=O)c1ccccn1	?
O=C(c1ccccn1)c1cc2ccccc2n1S(=O)(=O)c1ccccc1	1.0%
CCOc1ccc(CCNC(=O)C2CCN(S(=O)(=O)N3CC(C)CC(C)C3)CC2)cc1OCC (configuration not stated)	-9.7%
CSc1ccc(C#N)cc1NC(=O)c1cccnc1Cl	-6.6%
CCc1sc(C(=O)NCCCN2CCCC2=O)cc1Br	1.1%
Cc1c(NC(=O)CNCc2ccc3c(c2)OCO3)c(=O)n(-c2ccccc2)n1C	15.0%
c1ccc2nc3c(nc2c1)[nH]c1ccccc13	4.8%
Cc1ccc(S(=O)(=O)NCc2cccnc2)cc1C	7.3%
O=C(O)c1ccc(-c2ccc(O)c(F)c2)cc1	1.1%
Cc1c(C(=O)O)cccc1-n1c(C)cc(/C=C(/C#N)C(=O)NCc2ccccc2)c1C	14.3%
Cc1ccc(CNC(=O)CCS(=O)(=O)c2cccc3nonc23)cc1	0.8%
C=CCC[C@H](Cc1ccc(F)cc1)C(=O)OC[C@@H](Cc1c[nH]c2ccccc12)NC(=O)[C@@H](CC=C)CC(=O)N[C@H](CO)Cc1ccccc1	-18.6%
Cn1c(=O)c2c(nc(CN3CCN(CCO)CC3)n2Cc2ccccc2Cl)n(C)c1=O	-21.4%
CN1CCN(c2ccc(S(=O)(=O)N3CCOCC3)cc2)CC1	0.1%
CSc1cccc(NC(=O)c2c(Cl)cnn2C)c1	6.5%
O=C(NCC1CCCO1)c1cn(Cc2ccccc2)nc1-c1ccc(Cl)cc1 (configuration not stated)	6.9%
O=C(CCCOc1cccc(Br)c1)NCCOc1ccccc1	-9.7%
Cc1cccc(NS(=O)(=O)c2cccc3nsnc23)c1	6.7%
Cc1nc2ccccc2c(=O)n1/N=C/c1ccc(N(C)C)cc1	-11.9%
COc1ccc(Cl)cc1NC(=O)NCCn1c(=O)oc2ccc(C)cc21	-2.7%
Cc1nn(Cc2ccccc2)c(C)c1NC(=O)CSc1nnc(-c2cc(Cl)ccc2O)n1C	18.4%
COC(=O)c1cc(C)sc1NC(=O)C1CC(=O)NN1Cc1ccccc1 (configuration not stated)	-22.2%
CCOC(=O)CSc1nc(N)c(C#N)c(-c2ccc(OCC)cc2)c1C#N	17.6%
CCn1c(SCC(=O)Nc2ccc(C(C)=O)cc2)nnc1C1CC1	-2.0%
CC12CCC(=O)N1C(C(=O)OCC(=O)Nc1sccc1C#N)CS2 (configuration not stated)	-0.1%
CCC/C(O)=C1\C(=O)CC(C)(C)CC1=NCc1ccccc1	-17.5%
COC(=O)CSc1snnc1-c1ccc(Cl)c(Cl)c1	3.6%
COCc1ccc([C@@H]2C[C@H]3CN(Cc4cccc(Cl)c4)C(=O)[C@]34CCCN24)o1	-1.6%
COc1cc(NC(=S)N2CCN(c3ccccn3)CC2)cc(OC)c1	-16.5%
CN1CCN(/C=N/c2c(C#N)cnn2-c2ccccc2)CC1	-0.4%
O=C1CSC(=S)N1N=C1CCCCCC1	-18.6%
COC(=O)C1CC(Cl)CN1c1ncc(C(F)(F)F)cc1Cl (configuration not stated)	-2.7%
Cn1c(=O)n(CCc2ccccc2)c2ccccc21	-2.5%
COc1cc(NC(=S)Nc2ccccn2)c(OC)cc1Cl	-8.5%
CCCCSc1nnc2c(n1)OC(c1ccc(Br)s1)Nc1ccccc1-2 (configuration not stated)	-29.0%
CC[C@@]12C(=O)N(c3ccc(C)cc3)C(=O)N1[C@H](c1cccc(C)c1)[C@@H]1C(=O)N(Cc3ccccc3)C(=O)[C@@H]12	-3.0%
COC(=O)C1(C)NCCc2c1[nH]c1ccccc21 (configuration not stated)	4.6%
COC(=O)C1=C(C)N(Cc2ccccc2)C(=NCCc2cccnc2)N[C@H]1c1ccccc1	-4.4%
Cn1c(CNC(=O)CNC(=O)Cc2ccc(F)cc2)cc(=O)n(C)c1=O	20.6%
COc1ccc(C(=O)NC(C(=O)NCc2ccccc2OC)C(C)C)cc1 (configuration not stated)	-13.7%
CCOC(=O)Cc1csc(NC(=O)c2ccc(C)cc2)n1	-13.6%
O=C(CCc1ccccc1)NNC(=O)Nc1ccc(Cl)cc1	0.7%
COc1cc(/C=N/NC(=O)c2cccnc2)cc(Br)c1O	-9.4%
Cc1ccc(C2CC2c2n[nH]c(=S)n2-c2cccc(Cl)c2)cc1 (configuration not stated)	-21.3%
c1ccc2c(c1)ncn2CCC1CCCCC1	-15.7%
CCn1nc(C)c(NC(=O)c2cc(Br)ccc2Cl)c1C	-13.8%
CCOc1ccc(NC(=O)CN(C)C(=O)C2CC2C)cc1OCC (configuration not stated)	-8.6%
